HPGD block: HPGD (human) dehydrogenase inhibition; P15428; actives 4.3% (n = 150,000); AID 894; purified HPGD, NADH fluorescence kinetic, PGE2 substrate; Potency, µM, without a hit: top-dose activity change, negative = inhibition, actives largely listed as inhibitors; active = well fitted inhibition curve with a large enough effect (not every such curve was filed as active); inconclusive = small, poorly fitted or top-dose-only effect, or another doubt; inactive = no such curve, though single readings can be large or run the other way;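 further: top concentration of the series not given in the record; plate controls included wells without enzyme; inactives centre near -10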
Target sequence (P15428 whole entry, looked up): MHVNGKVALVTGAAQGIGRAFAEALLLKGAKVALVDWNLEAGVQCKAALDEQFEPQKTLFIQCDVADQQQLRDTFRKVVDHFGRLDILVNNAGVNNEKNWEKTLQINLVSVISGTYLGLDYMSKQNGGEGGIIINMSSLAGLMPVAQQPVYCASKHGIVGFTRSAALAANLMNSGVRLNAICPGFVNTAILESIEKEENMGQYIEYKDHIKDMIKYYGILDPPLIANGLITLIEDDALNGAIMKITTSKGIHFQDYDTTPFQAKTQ
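NADH formation kinetics: reaction with 30 uM PGE2 and 1 mM NAD+ (final), 20 nM enzyme, Tris-HCl pH 8 with Tween 20, after 15 min compound preincubation at room temperature. Fluorescence change, last versus first of five reads.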
Numbers without * were called inactive; ? = inconclusive; & = joins results of further samples. On the % scale 0 is the no-effect control and ±100 the full control effect; potency means the concentration at half of the fitted maximal effect. A portion of the library; count on the stated rates, not on these rows.

HPGD block | SMILES
-10.4% | CCOc1cc(CNc2ncnc3nc[nH]c23)ccc1OC
-15.3% | O=C(Oc1ccccc1)N1CCC2(CC1)CCN(c1ccccn1)CC2
-3.5% | CCNC(=O)C/C(C)=N/NC(=O)C1CCCCC1
-19.9% | CCCCCCOC(=O)/C=C/c1c(C)[nH]c(=O)[nH]c1=O
-10.9% | COCCn1c(=NC(=O)C2COc3ccccc3O2)sc2cc(S(N)(=O)=O)ccc21 (configuration not stated)
-12.0% | Cn1c(C(O)c2ccc3c(c2)OCO3)nc2ccccc21 (configuration not stated)
-6.0% | CCOC(=O)N1CCN(S(=O)(=O)c2cccc3nsnc23)CC1
-4.1% | CCC(=O)N1CCN(c2ccc(NC(=O)c3ccc(N4CCCC4)c([N+](=O)[O-])c3)cc2)CC1
-5.9% | Clc1ccc(-c2nnc(N3CCCC3)nn2)cc1
? | Cc1ccc(-c2cc3nc(-c4ccc(Br)cc4)cc(N)n3n2)cc1

7 successive records from above, for reference:
HPGD block | SMILES
-10.4% | CCOc1cc(CNc2ncnc3nc[nH]c23)ccc1OC
-15.3% | O=C(Oc1ccccc1)N1CCC2(CC1)CCN(c1ccccn1)CC2
-3.5% | CCNC(=O)C/C(C)=N/NC(=O)C1CCCCC1
-19.9% | CCCCCCOC(=O)/C=C/c1c(C)[nH]c(=O)[nH]c1=O
-10.9% | COCCn1c(=NC(=O)C2COc3ccccc3O2)sc2cc(S(N)(=O)=O)ccc21 (configuration not stated)
-12.0% | Cn1c(C(O)c2ccc3c(c2)OCO3)nc2ccccc21 (configuration not stated)
-6.0% | CCOC(=O)N1CCN(S(=O)(=O)c2cccc3nsnc23)CC1

Next entries:
HPGD block | SMILES
-3.9% | COC(=O)c1c(C(=O)OC)c2oc3ccccc3n2c1Cl
-8.2% | COC(=O)CCCC[C@@H]1SC[C@@H](NC(=O)OC)[C@@H]1NC(=O)OC
-24.2% | COc1ccc(/C=N\NC(=O)c2ccc(=O)[nH]n2)cc1O
-3.2% | CCOC(=O)c1c(C)n(OC)c2ccc3c(no[n+]3[O-])c12
-9.0% | COC(=O)N/N=C/c1c(C)c(C(=O)c2ccc(F)cc2)n2ccccc12
-6.8% | CCc1nnc(NC(=O)CSc2ncc(-c3ccccc3)n2CC)s1
11.2µM* | COc1cc(C)ccc1OCCCOc1c(Cl)cccc1Cl
-3.4% | COc1ccc(C(=O)/C=C2/c3ccccc3CC(C)(C)N2C)cc1
7.4% | COc1ccccc1CNCCCCCCNCCCCCCCCNCCCCCCNCc1ccccc1OC
? | Cc1ccc(-n2nc(C)c3c(C)cc(=O)[nH]c32)cc1

(further entries)
HPGD block | SMILES
-3.3% | Cc1ccc(N2C(=O)C(CN(C)C)C2c2ccccc2)cc1 (configuration not stated)
-17.5% | O=C(Nc1ccc(O)cc1C(=O)O)c1cccc(Br)c1
-15.4% | Clc1ccc(C2=Nn3c(nnc3-c3n[nH]c4c3CCC4)SC2)cc1
-7.1% | COCCn1c(SCC(=O)N2CCCC2)nnc1-c1ccoc1C
-19.4% | O=C(Cn1c2c(c(-c3ccccc3)cc1=O)CCCC2)N1CCCCCC1
1.4% | COc1ccccc1C(=O)N1CCN(S(=O)(=O)Cc2ccccc2)CC1
-23.3% | COc1ccccc1C(=O)OCC(=O)c1cccc([N+](=O)[O-])c1
-4.7% | COC(=O)Cc1n[nH]c(=S)[nH]c1=O
? | Cc1cccc(NC(=O)/C(=C\c2cccs2)NC(=O)c2ccccc2)c1
-8.8% | O=S(=O)(O)n1ccnc1 (tested in a mixture with another compound)

Further records follow:
HPGD block | SMILES
-2.2% | Cc1cccc(NC(=O)C2(c3cccs3)CCOCC2)n1
-1.2% | O=P(O)(CP(=O)(c1ccccc1)c1ccccc1)c1ccccc1O
-9.1% | CN1C(=O)CSc2ccc(NC(=O)NCCC3=CCCCC3)cc21
-6.8% | COc1ccc(N2CCN(S(=O)(=O)c3ccc(Br)s3)CC2)cc1
-3.5% | CCOc1ccc(NC2CCN(C(C)=O)CC2)cc1
-6.1% | CC1Cc2ccccc2N1C(=O)CCS(=O)(=O)c1cccc2nonc12 (configuration not stated)
12.6µM* | Cc1ccccc1OC(C)C(=O)NC1CCCC1 (configuration not stated)
1.4% | Cc1ccc(S(=O)(=O)N2CCCC(C(=O)Nc3ccc(NC(=O)c4ccccn4)cc3)C2)cc1 (configuration not stated)
-9.8% | COc1ccccc1CN(Cc1nc2ccccc2c(=O)[nH]1)C(=O)Nc1ccccc1
-0.3% | CN(Cc1ccccc1)C(=O)Nc1ccccc1

The list goes on:
HPGD block | SMILES
0.5% | C=CCn1c(-c2cccnc2)n[nH]c1=S
-5.2% | CC(=O)Nc1cc(ON=C(C)C)cc([N+](=O)[O-])c1
-4.1% | CC1CCC2(CC1)NC(=S)N(c1ccccc1)N2 (configuration not stated)
-11.6% | CCOC(=O)NC(=O)C(=CNc1cccc(C)c1)C(=O)NC(=O)OCC
-5.4% | CC(=O)Oc1ccc2c(c1)OC(c1ccccc1)CC21CC(C)(C)NC(=S)N1 (configuration not stated)
-12.9% | O=C(CCN1C(=O)COc2ccccc21)NCCCN1CCc2ccccc2C1
? | CCOC(=O)c1c(C(F)(F)F)nc2ncccn12
? | CCOC(=O)c1c(N)sc(C(C)=O)c1C
? | O=C(O)CCc1ccc(-c2ccc(Br)cc2)o1
-13.6% | COc1ccc(CCN=C(N)NS(=O)(=O)c2ccccc2)cc1

Going on with the list:
HPGD block | SMILES
? | CCCCC(CC)Cn1c2nc3ccccc3nc2c2c(=N)oc(C)nc21 (configuration not stated)
-1.0% | Cc1nc(S(=O)(=O)c2ccc(Cl)cc2)nc2c1CCC2
1.6%&-6.0%&-10.8% | Clc1ccccc1C(c1ccccc1)(c1ccccc1)n1ccnc1
28.2µM* | CSc1nc2ccc(NC(=O)C3CCCO3)cc2s1 (configuration not stated)
-4.8% | COc1cc(NC(=O)CCN2CCN(c3ccccc3F)CC2)cc(OC)c1
-12.9% | O=C(/C=C/c1ccc(Cl)cc1)NCCc1ccccc1
-2.4% | CC(C)N1C(=O)CCC1C(=O)NCCc1ccccc1 (configuration not stated)
-5.6% | O=S(=O)(Nc1ccc(O)c(Sc2nc3ccccc3s2)c1)c1ccc(F)cc1
-9.1% | Cn1c(=O)n(C)c2cc(C(N)=O)ccc21
-24.4% | CC(=O)Oc1ccc2c(C)cc(=O)oc2c1C(=O)c1ccccc1

The results go on:
HPGD block | SMILES
-1.2% | Cc1ccc(CNn2cnnc2SCC(=O)NC(C)(C)C)cc1
-9.1% | CNCCC=C1c2ccccc2C=Cc2ccccc21
-5.3% | COc1ccc(C(=O)N2CCC[C@@]3(CCN(C(=O)Nc4ccccc4)C3)C2)cc1
-7.3% | c1ccc2c(c1)ncn2CCOCCOCCn1cnc2ccccc21
? | NCc1ccc(-c2nc3ccccc3o2)cc1
6.4% | Cc1cc(Cl)c(S(=O)(=O)N2CCCCCC2)cc1OCC(N)=O
-9.0% | CCOC(=O)N1CCC(N2Cc3cccc(C(=O)O)c3C2=O)CC1
-0.7% | Cc1cc(C)cc(NC(=O)CSc2nnc(-c3ccc(S(=O)(=O)N4CCCC4)cc3)o2)c1
-6.7% | C=C(C)n1c(=O)[nH]c2ccccc21
? | CCc1nnc(NC(=O)CSc2ncnc3c2cnn3-c2ccc(OC)cc2)s1

New compounds follow.
HPGD block | SMILES
15.8µM* | CCCCCC(=O)N(O)C1CC(=O)N(c2ccccc2)C1=O (configuration not stated)
0.5% | C/C=C1/C(=O)C[C@H]2[C@@H]3CCC4=CC(=O)CC[C@]4(C)[C@H]3CC[C@]12C
? | CCOC(=O)c1sc(NC(=O)CSc2n[nH]c(CC(C)C)n2)nc1C
-9.1% | Cc1cc(NC(=O)CSCC(=O)N(c2cccc(Cl)c2)C(C(=O)NC2CCCCC2)c2ccc(O)c(O)c2)no1 (configuration not stated)
-18.9% | CC1CC(=O)Nc2ccc([N+](=O)[O-])cc2N1C (configuration not stated)
-6.6% | COc1ccc(C2C(C(=O)N3CC(C)CC(C)C3)c3ccccc3C(=O)N2C)cc1 (configuration not stated)
-5.5% | CSc1nsc(SC)c1NC(=O)N1CCCC1
-7.4% | CC(=O)c1cn(CC(=O)NCc2ccco2)c2ccccc12
-9.8% | Cc1ccnc(Sc2ncccc2[N+](=O)[O-])n1
20µM* | O=C(O)c1ccc(-n2nnnc2SCc2ccccc2)cc1

Continued:
HPGD block | SMILES
-6.6% | OC[C@@H]1CCC[C@H](n2cnc3c(=S)nc[nH]c32)O1
-0.1%&-7.2%&0.3% | CC1=C(/C=C/C(C)=C/C=C/C(C)=C/CO)C(C)(C)CCC1
1.7% | CCSc1nnc(NC(=O)CSc2nccn2-c2cccc(C)c2)s1
? | NC(=O)c1cnn2c(C(F)(F)F)cc(-c3ccccc3)nc12
0.8% | CCC1CCCCN1CCCNC(=O)C1CCN(S(=O)(=O)N2CCCCC2)CC1 (configuration not stated)
-5.4% | Cc1cc2ncn(-c3ncnc4sc5c(c34)CCC(C)C5)c2cc1C (configuration not stated)
-1.3% | CCOC(=O)c1c(-c2ccccc2)oc2ccc(O)c(CN(C)C)c12
-4.7% | Cn1ccnc1SCC(=O)n1c2c(c3ccccc31)CCCC2
-15.0% | COc1cc(C(=O)OCC(=O)NCc2ccccc2)cc(NC(=O)c2ccco2)c1OC
-29.2% | NC(=O)CSc1ncnc2c1oc1ccccc12

Going on with the list:
HPGD block | SMILES
-13.5% | O=C(NNC1CC(=O)N(c2cccc(Cl)c2)C1=O)c1cccnc1 (configuration not stated)
? | Cc1cc(C)c2nc3nc(C)cc(C)c3c(N)c2c1
1.7% | O=C(COC(=O)c1cccc(C(=O)OCC(=O)NCc2ccc(F)cc2)n1)NCc1ccc(F)cc1
-4.1% | Nc1ncncc1-c1ccc([N+](=O)[O-])cc1
? | CN(C)c1ncc2nc(-c3ccc(F)cc3)c(=O)n(CCC#N)c2n1
-9.6% | CC1(C)N=C(c2ccccc2)C(=O)N1
? | O=C(CN1C(=O)c2cccc3cccc1c23)Nc1ccc(S(=O)(=O)Nc2nccs2)cc1
-2.7% | COc1ccc(C(C)=O)cc1CSCCC#N
-2.9% | CCN(CC)CCCCNC(=O)c1ccc(Cc2nc3ccccc3[nH]2)cc1
? | C=C1c2c(Cl)ccc(O)c2C(O)=C2C(=O)[C@]3(O)C(O)=C(C(N)=O)C(=O)C(N(C)C)C3C(O)C12 (some centres not stated)

(more compounds)
HPGD block | SMILES
-7.9% | O=C(OCc1csc(Nc2ccccc2)n1)c1ccc(Cl)cc1
-3.2% | CCNc1nc(Cl)nc(NNC(=O)C(C)Oc2ccccc2)n1 (configuration not stated)
? | Cc1ccc(C(=O)Nc2cc(Cl)ccc2N2CCCCC2)s1
-20.2% | COc1ccc(CCNC2=C(Cl)C(=O)N(CCc3ccccc3)C2=O)cc1OC
1.3% | CCC(C)NC(=O)c1ccccc1NC(=O)c1ccccc1N(C)S(C)(=O)=O (configuration not stated)
-11.2% | CC(C)C(NC(=O)CN1C(=O)c2ccccc2S1(=O)=O)C(C)C
? | Oc1ccccc1/C=N/Nc1ccccc1
? | CC1Cc2ccccc2N1C(=O)CN1CCC(n2nnc3cc(C(F)(F)F)ccc32)CC1 (configuration not stated)
-5.4% | c1ccc(-c2nc(NC3CC3)nc(-n3ccnc3)n2)cc1
14.1µM* | COC(=O)C(C)c1ccc(C(=O)c2cccs2)cc1 (configuration not stated)

Continuation:
HPGD block | SMILES
? | CCCCn1c(=NC(=O)c2cccnc2)c(C#N)cc2c(=O)n3cccc(C)c3nc21
-16.4% | Cc1csc(NC(=O)CSc2nncn2C)n1
? | C[C@H]1C(c2ccccc2)=NN(c2ccccc2)[C@@H]1CO
-13.8% | S=C(c1ccc[nH]1)N1CCOCC1
? | CC(C)CCNC(=O)c1sc2ccc(S(=O)(=O)N3CCCCC3)cc2c1N
-21.1% | Cc1ccc(N(CC(=O)Nc2ccccc2-c2ccccc2)S(=O)(=O)c2ccccc2)cc1
14.1µM* | O=C1C(c2cc(=O)c3ccccc3[nH]2)=C(O)c2ccccc21
-9.9% | Cc1ccc2c(CN3CCN(CCO)CC3)cc(=O)oc2c1
-11.9% | CC(C)Sc1nc(C(F)(F)F)cc(=O)n1-c1ccccc1
-4.3% | CCCNC1=C(N(C(C)=O)c2cccc(F)c2)C(=O)c2ccccc2C1=O

Other compounds follow:
HPGD block | SMILES
-12.6% | COn1c(SC(C)C)nc2ccccc2c1=O
-6.2% | O=C(O)CN(Cc1ccco1)S(=O)(=O)c1ccc(F)cc1
1.58µM* | Cn1nnc2cc(C(=O)N3CCSCC3)ccc21
-16.5% | CC(C)(C)c1ccc(C(=O)OC/C(O)=C(\C#N)c2nc3ccccc3s2)cc1
1.4% | Cc1nc2sc(C(c3ccc(Cl)cc3)N3CCN(C(=O)c4ccco4)CC3)c(O)n2n1 (configuration not stated)
-2.4% | Cn1c(=O)c2c(nc(SCCN3CCCCC3)n2Cc2ccc(Cl)cc2)n(C)c1=O
? | C=CCNC(=O)c1ccc(-c2nc(-c3ccccc3)cs2)cc1
-12.2% | CCOc1ccc(CCNC(=O)c2cc3sccc3n2C)cc1OCC
-7.8% | Cc1c(C(=O)N/N=C/c2ccccc2)[nH]c2ccc(Cl)cc12
-2.5% | Cc1nc2ccccc2nc1CSc1nnc(N)s1

Other entries:
HPGD block | SMILES
-1.2% | O=C(CCC(=O)N(c1ccccc1)C(C(=O)NC1CCCC1)c1ccncc1)Nc1cccnc1 (configuration not stated)
0.6% | CC(C)COC(=O)c1ccccc1N1C(=O)C2C3CCC(C3)C2C1=O (configuration not stated)
-25.8% | Cn1c(=O)c2c(ncn2CC(=O)OCC(=O)Nc2ccc(Cl)cc2)n(C)c1=O
-7.0% | Clc1ccc(Sc2cnc3ccccc3n2)cc1
-13.6% | O=C(c1cccc(F)c1)N1CCC2(CCCN(c3ccncc3)C2)CC1
-5.1% | CCCc1ncc(C(O)c2cccc(OC)c2OC)n1C (configuration not stated)
-0.9% | CC(=O)NC(Cc1ccccc1)C(=O)OCC(=O)c1ccc(Br)cc1 (configuration not stated)
-4.5% | CCOC(=O)N/N=C\c1ccc([N+](=O)[O-])o1
